Screens: PubChem BioAssay, National Center for Advancing Translational Sciences (NCATS)
hNpr1 antagonist: blocks ANP-stimulated signaling of human Npr1 receptor; P16066; HEK293 hNpr1 GloSensor cGMP, ANP-stimulated luminescence; Potency, µM (titrated, usually from 46.3 µM), without a hit: top-dose activity change, negative = inhibition, actives largely listed as inhibitors; 76,000 tested, 1.6% active; AID 1347048; active = well fitted inhibition curve with a large enough effect; inconclusive = small, poorly fitted or top-dose-only effect; inactive = no such curve, though single readings can be large or run the other way;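 also: nearly all actives have a fitted effect of over 60% in size; nearly all hits also lower the signal before the agonist is added; a reference antagonist and vehicle were the controls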
Target sequence (P16066 whole entry, looked up): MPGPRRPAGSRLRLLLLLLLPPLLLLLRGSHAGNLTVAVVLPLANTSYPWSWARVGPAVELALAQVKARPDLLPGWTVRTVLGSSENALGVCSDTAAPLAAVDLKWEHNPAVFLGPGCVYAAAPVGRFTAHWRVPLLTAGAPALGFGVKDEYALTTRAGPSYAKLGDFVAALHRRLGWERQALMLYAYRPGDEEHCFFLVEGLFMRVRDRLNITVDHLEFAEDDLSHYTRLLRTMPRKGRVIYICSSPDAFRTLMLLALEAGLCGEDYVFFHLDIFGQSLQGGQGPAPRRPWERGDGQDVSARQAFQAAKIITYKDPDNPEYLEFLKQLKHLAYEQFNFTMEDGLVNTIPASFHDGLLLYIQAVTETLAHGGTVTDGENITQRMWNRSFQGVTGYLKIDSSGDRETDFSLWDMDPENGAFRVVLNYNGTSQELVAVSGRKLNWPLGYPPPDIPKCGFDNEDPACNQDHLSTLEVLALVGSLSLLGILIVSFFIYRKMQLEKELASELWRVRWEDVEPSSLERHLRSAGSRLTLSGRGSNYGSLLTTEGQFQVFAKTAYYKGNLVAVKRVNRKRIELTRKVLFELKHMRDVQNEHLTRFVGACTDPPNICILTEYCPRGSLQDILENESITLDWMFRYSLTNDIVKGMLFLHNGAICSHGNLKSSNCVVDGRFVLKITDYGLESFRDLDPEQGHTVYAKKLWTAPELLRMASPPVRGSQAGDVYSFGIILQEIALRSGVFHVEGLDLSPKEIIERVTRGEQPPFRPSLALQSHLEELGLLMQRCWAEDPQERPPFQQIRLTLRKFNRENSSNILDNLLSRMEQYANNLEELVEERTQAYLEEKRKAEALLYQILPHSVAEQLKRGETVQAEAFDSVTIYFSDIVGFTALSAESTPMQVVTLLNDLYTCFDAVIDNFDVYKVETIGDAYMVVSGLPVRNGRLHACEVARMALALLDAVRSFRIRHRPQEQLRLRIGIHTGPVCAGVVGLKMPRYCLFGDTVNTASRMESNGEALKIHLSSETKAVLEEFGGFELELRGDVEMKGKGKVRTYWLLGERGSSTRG
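HEK293 cells stably expressing human Npr1 and cGMP GloSensor pGS-40F, loaded 2 h with 2% GloSensor reagent, given compound 30 min at room temperature. Luminescence read before and 20 min after 0.1 nM hNppA.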
Active calls of the source: *; ? = inconclusive; [ ] = another dose, or the depositor's remark. % is scaled to controls: 0 for no effect and ±100 for the full control effect; potency is read from the fitted curve at half-maximal effect.

item	hNpr1 antagonist	smiles
1	3%	Cn1ncc(N2CCCC(CC(=O)Nc3ccccc3F)C2)cc1=O (configuration not stated)
2	-17%[70.6 µM]	Cc1noc(C)c1-c1cnc(Nc2cccc(C(F)(F)F)c2)c2c1CCO2
3	-2%[70.6 µM]	Cc1noc(C)c1CN1CCc2ncc(C(=O)Nc3ccccc3)n2CC1
4	-1%	COCCCNC(=O)C(NC(=O)c1cccc(C)c1)C1CCN(C(=O)c2ccccc2)CC1 (configuration not stated)
5	-1%	Cn1nc(N2CCC(NC(=O)c3ncccn3)CC2)ccc1=O
6	1%	CN(C)c1nccnc1OC1CCN(C(=O)CCCc2ccccc2)C1 (configuration not stated)
7	2%	CN(C)Cc1nnc(C2CC(NC(=O)c3ccc4c(c3)CCC4)C2)n1C (configuration not stated)
8	?	COc1ccc(C(=O)N2CCCC(c3nc(-c4ccccc4)no3)CCNC(=O)CC2)c(OC)n1 (configuration not stated)
9	-19%	C[C@H](C(=O)N1CCCC1)[C@@H]1CC[C@@]2(C)Cc3sc(-c4ccsc4)nc3[C@@H](C)[C@@H]2[C@H]1O
10	-6%	Cc1ccc(C2(O)CCN(c3nccc(CCC(F)(F)F)n3)CC2)nc1
11	-23%[70.6 µM]	CC(C)C[C@@H]1N[C@H](C(=O)NCC2CC2)Cc2c[nH]c3cccc1c23
12	1%	O=C(Nc1ccc(Cl)cc1)c1cc(-c2ccc[nH]2)n[nH]1
13	-1%	Cn1cnc(S(=O)(=O)N2CCC(N(C(=O)C3CC3)C3CCOCC3)CC2)c1
14	2%	CS(=O)(=O)N1CCCN(Cc2cccc(C#N)c2)CCNC(=O)CC1c1ccccc1 (configuration not stated)
15	2%	CCCN(CC1CC1)C(=O)C1CCC(=O)N(CCc2ccc(Cl)cc2)C1 (configuration not stated)
16	-10%	C[C@]1(CO)[C@H]2Cc3sc(NC(=O)c4ccc(F)cc4)nc3[C@@H](CC(=O)NC3CC3)[C@]2(C)CC[C@H]1O
17	-4%	CC1CCN(C(=O)c2ccccc2OCC2CCCN(Cc3cncs3)C2)CC1 (configuration not stated)
18	-1%	CCOc1ccccc1NC(=O)N1C[C@H](Oc2ccccc2)C[C@@H]1C(=O)N1CCOCC1
19	3%	O=C(Cn1nc2c(cc1=O)CCCCC2)NCc1ccc(C(=O)O)cc1
20	3%	Cc1cccc(OC2(C(=O)O)CCN(c3cncc(C(N)=O)n3)CC2)c1
21	0%	C[C@@H](NC(=O)N1CCOC[C@H]1c1ncc(-c2ccc(OC(F)(F)F)cc2)[nH]1)c1ccccc1
22	?	Cc1oc2c(c1C(=O)N1CCN(c3ccccc3)CC1)CN(Cc1ccc(F)cc1)CC2
23	-1%	Cc1nc2scc(CC(=O)N3CCOCC3)n2c(=O)c1-c1cc(C)n(-c2ccc(C(C)C)cc2)n1
24	1%	COc1ccc(-c2nc(C(=O)NCc3cccnc3)n3ccccc23)cc1
25	-1%	Brc1ccc(-c2ccnc3nc(-c4cccs4)nn23)s1
26	2%	Cc1c(-c2ccccc2)[nH]c2c(CNC(=O)CN3C(=O)CNC3=O)cc(Cl)cc12
27	-1%	CC1(CCCCN2CCOCC2)COc2ccc(C(=O)Nc3cccc(Cl)c3)cc2N1 (configuration not stated)
28	6%	COC[C@@H]1[C@H](C(=O)N2CCN(c3ccccn3)CC2)CCC(=O)N1C
29	-7%	O=C1CC(c2ccccc2)N(Cc2ccncc2)CCCN(CC2CCCCC2)CCN1 (configuration not stated)
30	4%	Cn1nccc1C(=O)N1CCC(Oc2ccccc2)C1 (configuration not stated)
31	-8%	CCOc1ccccc1CN1CC(C(=O)NCc2ccncc2)C2(CCOCC2)C1 (configuration not stated)
32	8%	O=C(c1ccoc1)N1CCC(Oc2cccc(F)c2)C1 (configuration not stated)
33	4%	Cc1cccc(-c2nc3cc4c(cc3cc2CN2CCC[C@H]2C(N)=O)OCO4)c1
34	0%[70.6 µM]	O=C(NC1CCCN(c2nc3ncccc3o2)C1)c1ccc(F)cc1 (configuration not stated)
35	0%	O=C(Cn1cccn1)N1CC(c2noc(C3CCCN3CC3CC3)n2)C1 (configuration not stated)
36	4%	CCCN1CC2(CCN(Cc3nc(C(=O)O)co3)CC2)CC1C(=O)O (configuration not stated)
37	2%[70.6 µM]	CCn1c2c(c(=O)n1-c1ccccc1)CCN(C(=O)CCc1cccnc1)C2
38	1%	CCC1(CO)CCCN(Cc2ccc3c4c(cccc24)C(=O)OC3)C1 (configuration not stated)
39	6%[70.6 µM]	N[C@H]1[C@H](O)[C@@H](N2CCC(Cc3ccccc3)CC2)[C@@H]2OC[C@H]1O2
40	-1%	CN(C)C[C@@H]1CN(C)C[C@H]1NS(=O)(=O)c1ccccc1F

Among those listed so far, three have a COOH group.
item	hNpr1 antagonist	smiles
19	3%	O=C(Cn1nc2c(cc1=O)CCCCC2)NCc1ccc(C(=O)O)cc1
20	3%	Cc1cccc(OC2(C(=O)O)CCN(c3cncc(C(N)=O)n3)CC2)c1
36	4%	CCCN1CC2(CCN(Cc3nc(C(=O)O)co3)CC2)CC1C(=O)O (configuration not stated)

Next part:
item	hNpr1 antagonist	smiles
41	2%	O=C1NC2(CCN(C(=O)c3ccc(F)cc3)C2)OCc2ccccc21 (configuration not stated)
42	-16%[70.6 µM]	CC(=O)N1CCN(c2cc(-c3ccc(Cl)cc3)nc3c(C)noc23)CC1
43	0%	CCc1ccc(C(=O)N2CCc3[nH]nc(C(=O)NCCCc4ccccc4)c3C2)cc1
44	-1%	O=C(N[C@H]1[C@H](O)[C@H](O)C[C@@H]1c1ccc(N2CCOCC2)nc1)c1nc2ccccc2s1
45	1%	Cn1cncc1C(=O)N1CCCn2ccnc2C1c1ccccc1 (configuration not stated)
46	0%	CCn1ccc(C(=O)N2CCCCCCNC(=O)[C@@H]3C[C@@H](c4nc(Cc5ccccc5)no4)C[C@@H]32)n1
47	-1%	COc1ccc(C(=O)N[C@@H]2CN(c3ncccn3)C[C@H]2CN(C)C)c(OC)c1
48	-15%	CCOC(=O)C1=C(C)N=C2SC=C(CC(=O)NCC3CC3)N2C1c1cc(OC)ccc1OC (configuration not stated)
49	-3%	O=C1CCCCC(Cc2ccccc2)(C(=O)O)N1 (configuration not stated)
50	1%	c1ccc(-c2noc(-c3nc(-c4ccncc4)no3)n2)cc1
51	1%[70.6 µM]	Clc1ccc(-c2cnc([C@@H]3COCCN3C3CCOCC3)[nH]2)cc1
52	-1%	CCCS(=O)(=O)N[C@@H]1CN(Cc2ccccn2)C[C@H]1CN(C)C
53	0%	COc1ccc(N2CC(C(=O)N3CCC(C(=O)NCc4cccc(OC)c4)C3)NC2=O)cc1 (configuration not stated)
54	-1%[70.6 µM]	Cc1noc([C@@H]2C[C@H](NC(=O)c3ccccc3)CN2C)n1
55	-4%	Cc1ccc(C(=O)NC2CCCN(c3cc(-c4ccc(Cl)cc4)[nH]n3)C2)cn1 (configuration not stated)
56	1%[70.6 µM]	O=C(O)C[C@@H]1CCN(C(=O)C2CC2)C[C@@H]1CCN1CCN(c2ccc(F)cc2)CC1
57	14%	CC(Cn1ccnc1-c1cn(C2CCNCC2)nn1)Oc1cccnc1 (configuration not stated)
58	14%	COc1cc(CCC(=O)N2CCc3n[nH]c(=O)n3CC2)on1
59	1%[70.6 µM]	CC(=O)NC1(C)CCN(Cc2cccc(-c3ccccc3)c2)C1 (configuration not stated)
60	-4%[70.6 µM]	COc1ccc(C(=O)N2CC[C@@H](CC(=O)O)[C@@H](CCN3CCCCC3)C2)cc1
61	-1%[70.6 µM]	O=C([C@@H]1Cc2nc[nH]c2CN1CC1CC1)N1CCCC1
62	-2%	Cc1ccc(OCc2nc(C3CCCCN3C(=O)CCc3ccccc3)no2)cc1 (configuration not stated)
63	-1%	O=C1NCCCCCCN(C(=O)c2ccoc2)[C@H]2C[C@H](c3nc(Cc4ccccc4)no3)C[C@@H]12
64	-1%	CS(=O)(=O)N1CCOc2ccc(CCC(=O)NC3CCCc4ccccc43)cc2C1 (configuration not stated)
65	1%	Cc1noc(C)c1CC(=O)N[C@@H]1CN(S(C)(=O)=O)C[C@H]1CN(C)C
66	-1%	CCn1cc(S(=O)(=O)NC2CCc3nn(CC4CC4)c(=O)n3CC2)cn1 (configuration not stated)
67	-2%[70.6 µM]	CN1CCN(Cc2ccc(Nc3ncc(-c4cncnc4)c4c3OCC4)cc2)CC1
68	?	CN(Cc1cnc2ccccn12)C(=O)c1cc(COc2ccc(F)cc2F)on1
69	7%[70.6 µM]	CCN(CC)[C@H]1[C@@H]2OC[C@@H](O2)[C@@H](NCC2CCCCC2)[C@@H]1O
70	1%	O=C(CN1CC2CC(C1)[C@H]1CCCC(=O)N1C2)NCCCN1CCCC1 (some centres not stated)
71	-9%	CC1(C)C(=O)N(Cc2ccccc2F)[C@H]2CN(Cc3cccc(OC(F)(F)F)c3)C[C@H]2[S+]1(=O)[O-]
72	-5%	COc1ccc(Cl)cc1CN(C)c1cc(C2CC(N)C2)ncn1 (configuration not stated)
73	5%	O=C(CCc1c[nH]c2ccccc12)Nc1ccc(-c2nnc3n2CCCC3)cc1
74	-1%	CCc1ccc(C(=O)N2CCC(Oc3ccc(C(=O)N(C)C)cn3)CC2)cc1
75	7%	COc1ccccc1OC1(C(=O)O)CCN(c2ncnc(C)c2C)CC1
76	3%[70.6 µM]	CN1CCC(N2CC[C@H]3COC(=O)N3c3cc(F)ccc3C2)CC1
77	7%	Cc1nnnn1CCCN1CCn2nc(CCC(=O)O)cc2C1
78	4%	COCCn1ncc(N2CCC(C(=O)N(C)Cc3ccc(N4CCN(C)CC4)cc3)C2)cc1=O (configuration not stated)
79	-27%[70.6 µM]	CC1(c2ccccc2)N(Cc2cccnc2)C(=O)OC12CCN(Cc1ccccc1)CC2 (configuration not stated)
80	2%	O=C(Cc1ccccc1)NCC(=O)N1CCCCCCNC(=O)CC1c1ccccc1 (configuration not stated)
81	5%[70.6 µM]	COc1ccc(CC(=O)N2CC[C@H]3CC(=O)N(Cc4cccnc4)CC[C@H]3C2)cc1
82	-9%	Cn1nc(C2CCCN(C(=O)C3CCOCC3)C2)n(Cc2ccccc2)c1=O (configuration not stated)
83	3%	O=C(Cc1ccccc1)N1CCC2(CC1)N(c1ccccc1)C(=O)CS2(=O)=O
84	11µM*	Cc1ccccc1OCC(=O)NC1CCN(c2cc(-c3ccccc3)[nH]n2)CC1
85	1%	CN1CC2(CCN(C(=O)CC3CCCCC3)CC2)CC1C(=O)N1CCOCC1 (configuration not stated)
86	-1%	C[C@@H](NC(=O)N1CCC(n2cc(CO)nn2)CC1)c1ccc(F)cc1
87	-7%	O=C(O)C1CCc2sc(C(=O)N3CCCC3)cc2C1 (configuration not stated)
88	-2%	Cc1nccnc1N1C[C@H](NC(=O)CN2CC(=O)NC2=O)[C@@H](C2CC2)C1
89	0%	COc1ccc(CN2C[C@@H](CN3CCCCC3)[C@@H](CO)C2)cc1O
90	-2%	Cc1cccc(NC(=O)CC2=C3CCCCC3N(C)C2=O)c1 (configuration not stated)
91	0%	O=C(NCc1cc(F)ccc1F)C1CN(S(=O)(=O)c2cccnc2)CC12CCCCC2 (configuration not stated)
92	11µM*	O=C(c1cc(F)ccc1Cl)N1CCC(Cc2nc(-c3ccccc3)no2)CC1
93	-2%	O=C(c1cnccn1)N1CC(F)(F)C[C@H]1c1nc(-c2ccccc2)no1
94	-11%	CN1C[C@@H](NC(=O)c2ccc3ccccc3c2)C[C@H]1c1nc(-c2ccc3c(c2)OCO3)no1
95	3%	COc1cc(NC(=O)CC[C@H]2NC(=O)c3ccccc3NC2=O)ccc1-n1nc(C)cc1C
96	0%	Cc1cc(Cl)ccc1S(=O)(=O)N1CCCC1c1nncn1-c1ccccc1 (configuration not stated)
97	-1%	CC(C)N1C(=O)C2(CCCC2)C1C(=O)N1CCN(Cc2ccccc2)CC1 (configuration not stated)
98	-30%[70.6 µM]	COc1ccc(-c2noc([C@@H]3C[C@@H](O)CN3Cc3ccccc3)n2)cc1
99	2%	O=C(Cn1nc2c(cc1=O)CCCCC2)NCC1(Cc2nnc3ccccn23)CCCCC1
100	?	Cc1c(Cl)cccc1NC(=O)c1cnc(-c2ccccc2)nc1-c1ccncc1

Printed as active in hNpr1 antagonist, among the entries above:
item	hNpr1 antagonist	smiles
84	11µM*	Cc1ccccc1OCC(=O)NC1CCN(c2cc(-c3ccccc3)[nH]n2)CC1
92	11µM*	O=C(c1cc(F)ccc1Cl)N1CCC(Cc2nc(-c3ccccc3)no2)CC1

Two compounds picked at random from the list so far, as already listed:
item	hNpr1 antagonist	smiles
31	-8%	CCOc1ccccc1CN1CC(C(=O)NCc2ccncc2)C2(CCOCC2)C1 (configuration not stated)
37	2%[70.6 µM]	CCn1c2c(c(=O)n1-c1ccccc1)CCN(C(=O)CCc1cccnc1)C2

Continuation.
item	hNpr1 antagonist	smiles
101	13%	Cc1nn(C)c(C)c1CCC(=O)N[C@@H]1CN(c2ccncn2)C[C@H]1CN(C)C
102	3%	CN1CC(=O)N(c2ccc([N+](=O)[O-])cc2)Cc2c1ncnc2N1CCN(c2ncccn2)CC1
103	6%	CC(C)c1nnc(C2CN(C(=O)Cc3ccsc3)CC23CCOCC3)o1 (configuration not stated)
104	6%	CCCCC1C(=O)N(C)CCN1C(=O)Cn1ncc(N(C)C)cc1=O (configuration not stated)
105	-4%	O=C(c1cn(CCCc2ccccc2)nn1)N1CCCC(c2ccccc2)CC1 (configuration not stated)
106	-2%	CNc1cc(C2CC(NS(=O)(=O)c3c(C)noc3C)C2)nc(N)n1 (configuration not stated)

From entry 74 up to 78, copied from above:
item	hNpr1 antagonist	smiles
74	-1%	CCc1ccc(C(=O)N2CCC(Oc3ccc(C(=O)N(C)C)cn3)CC2)cc1
75	7%	COc1ccccc1OC1(C(=O)O)CCN(c2ncnc(C)c2C)CC1
76	3%[70.6 µM]	CN1CCC(N2CC[C@H]3COC(=O)N3c3cc(F)ccc3C2)CC1
77	7%	Cc1nnnn1CCCN1CCn2nc(CCC(=O)O)cc2C1
78	4%	COCCn1ncc(N2CCC(C(=O)N(C)Cc3ccc(N4CCN(C)CC4)cc3)C2)cc1=O (configuration not stated)

The list is partial; rates above refer to the full screens.
